GIV-Gai inh – inhibitors of GIV peptide binding to Galpha-i3, primary screen, biochemical, fluorescence polarization, FITC-GIV GBA peptide, rat Galphai3; Guanine nucleotide-binding protein G(i) subunit alpha-3 (Rattus norvegicus), P08753; 90 min; hits give low values; scaled: aluminum fluoride 0%, vehicle 100%; percent of control (FP), % (no concentration beside the values); hit rate 0.42% among 210,000;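 active = replicate mean at 85% of control or lower, very high polarization wells dropped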;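 also: wells of about 15 µL received 100 nL stock; the first replicate is given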
Target sequence (P08753 whole entry, looked up): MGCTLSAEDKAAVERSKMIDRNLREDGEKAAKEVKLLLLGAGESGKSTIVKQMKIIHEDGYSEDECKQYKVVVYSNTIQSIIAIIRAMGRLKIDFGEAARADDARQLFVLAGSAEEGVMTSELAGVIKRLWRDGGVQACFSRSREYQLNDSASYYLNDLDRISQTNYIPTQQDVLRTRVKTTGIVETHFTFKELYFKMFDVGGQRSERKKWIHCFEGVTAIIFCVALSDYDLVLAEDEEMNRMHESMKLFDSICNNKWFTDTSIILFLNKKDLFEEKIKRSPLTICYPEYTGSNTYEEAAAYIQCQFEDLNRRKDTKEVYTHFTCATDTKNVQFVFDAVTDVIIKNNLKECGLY
* marks the source's active call; other numbers are inactive results.

SMILES	GIV-Gai inh
Cn1c(=O)c2c(ncn2CC(=O)c2ccc(Br)cc2)n(C)c1=O	116
COc1ccc(C(=O)CSc2n[nH]c(-c3ccncc3)n2)cc1C	105
CC(C)c1cc(C2CCCN2Cc2cccc(F)c2)no1 (centres undefined)	107
COc1cc(-c2nc3ccccc3[nH]2)ccc1O	104
CC1(C)SC(=S)N(/N=C/c2ccco2)C1N(O)C(=O)Nc1ccc(Cl)cc1 (centres undefined)	108
CCOc1cccc(C2Nc3ccc(C)cc3[C@H]3OCCC[C@@H]23)c1OC (some centres undefined)	99
CC(C)c1nnc(-c2cccs2)o1	102
CCCCNC(=O)CSc1nc2ccccc2n1S(=O)(=O)c1cc([N+](=O)[O-])ccc1C	116
Cc1csc(-c2cc(S(=O)(=O)NCc3ccc(OC(C)C)cc3)c(C)s2)n1	143
COc1ccc2c(c1)c1ncn(Cc3nc(C4CC4)no3)c(=O)c1n2Cc1ccc(F)cc1	102
CS(=O)(=O)N1CCC(C(=O)N2CCCC2)Oc2ccccc21 (centres undefined)	102
CN(C)c1cc(OC2CCN(C(=O)Cc3ccsc3)C2)ncn1 (centres undefined)	99
CCOC(=O)C1C(=O)NC(SCC(=O)Nc2ccccc2CC)=C(C#N)C1c1ccccc1Cl (centres undefined)	104
CCN(CC)CCOc1ccc2c(c1)C(=NNC(=O)C(C)(C)C)c1cc(OCCN(CC)CC)ccc1-2	117
CCCCCC(Cl)C(=O)OC1CCC2(C)C(=CCC3C2CCC2(C)C(C(C)CCCC(C)C)CCC32)C1 (centres undefined)	113

Remaining list, next part
SMILES	GIV-Gai inh
CCCS(=O)(=O)c1c(S(=O)(=O)CCC)c2c(N)cccn2c1C(=O)c1ccc(F)cc1	113
COC(=O)c1c(-c2ccc(Cl)cc2)noc1Nc1ccc(F)cc1	110
O=c1ccn(-c2cccc(F)c2)nc1-c1nc(-c2ccc(F)c(Br)c2)no1	98
CCOC(=O)c1cnc2ccc(OCC)cc2c1Nc1cccc(C(=O)O)c1	98
COC(=O)c1ccc2c(=O)n(CCc3ccc(S(N)(=O)=O)cc3)c(SCc3c(F)cccc3F)nc2c1	112
CC(C)(C)c1ccc(C(=O)N2CCN(CC(=O)Nc3nnc(-c4ccccc4)s3)CC2)cc1	102
CCCCCCCc1c2c(C)c(C(=O)OCC)nc-2cc2n1C(C)C(C)=C2C (centres undefined)	122
COc1ccc(N2C(SC)=NC(=Nc3ccc(C)cc3)C23CCC(C(C)(C)C)CC3)cc1 (centres undefined)	109
COc1ccc(-n2ncc3c(N4CCN(c5ccc(C(C)=O)cc5)CC4)ncnc32)cc1	115
O=C(NC1CCCCC1)C1CCCN(c2nc3ccc(Cl)cc3[nH]2)C1 (centres undefined)	102
COc1cccc(NC(=O)c2sc3nc4c(c(-c5ccc(C)o5)c3c2N)CCCC4)c1	115
CCOc1cc(C2C(C(=O)OCC3CCCO3)=C(C)NC3=C2C(=O)CC(c2cccs2)C3)ccc1O (centres undefined)	98
COc1ccc(C2Nc3c(C)cc(C)cc3[C@H]3OCCC[C@@H]23)cc1C (some centres undefined)	97
Cc1nn(-c2ccc(-c3ccccc3)nn2)c(C)c1S(=O)(=O)N1CCCC1	100
O=C(Nc1ccc(Cl)c(Cl)c1)c1cc(S(=O)(=O)N2CCN(c3ccccc3)CC2)ccc1F	107

Next section.
SMILES	GIV-Gai inh
Cc1ccccc1-n1c(=S)sc2c1nc(SCC(=O)N1CCCC1)n1c3ccccc3nc21	119
COC(=O)c1cccc(N2C(=O)/C(=C/c3ccc(-c4ccc(Cl)c(Cl)c4)o3)C=C2c2ccccc2)c1	112
Cn1c(CNC(=O)c2cccc(F)c2)nnc1SCC(=O)N1N=C(c2ccc(Br)cc2)CC1c1ccc(F)cc1 (centres undefined)	114
COc1ccc(NC(=O)c2nnc(C3CCN(C(=O)c4ccc(Cl)cc4)CC3)s2)cc1	102
CCc1csc(C2CCCN(C(=O)C3CC3)C2)n1 (centres undefined)	105
Cc1ccc2c(c1)C(=Nc1ccccc1)c1cc3cccc(C)c3nc1-2	102
CCOc1ccc(Br)cc1S(=O)(=O)N1CCN(c2nc(C)cc(N3CCOCC3)n2)CC1	109
CN(C)C(=O)c1ccc2c(c1)nc(CN1CCN(C(=O)c3ccc(C(C)(C)C)cc3)CC1)n2C	101
Cc1oc(C2CCN(C(=O)NC3CCCCC3)CC2)nc1C(=O)N1CCOCC1	102
O=C(CSc1nc2ccccc2n1S(=O)(=O)c1cccc([N+](=O)[O-])c1)NCCc1ccccc1	106
C=CCN1C(=O)OC2(CCCCC2)C1(C)O (centres undefined)	116
Fc1ccc(NC(=S)N2CCCc3ccccc32)cc1	105
Cc1ccc2c(c1)-c1nc3ccccc3cc1/C2=C\c1ccc(Br)cc1	102
COc1cccc(NS(=O)(=O)c2c(C)nn(-c3ccc(-c4ccc(C)cc4)nn3)c2C)c1	108
CCOC(=O)c1c(NC(=O)Cn2nc([N+](=O)[O-])c(Br)c2C)sc2c1CCC(C)C2 (centres undefined)	110

Further results:
SMILES	GIV-Gai inh
COc1cc(C2C(N3C(=O)c4ccccc4C3=O)C(=O)N2c2ccc(C)cc2C)cc(OC)c1OC (centres undefined)	114
OCCNc1nc(Nc2ccccc2)c2cnn(-c3ccccc3)c2n1	103
Cc1cc(NCCc2ccccc2)n2c(nc3ccccc32)c1C#N	109
O=C(NCc1ccc2c(c1)OCO2)C1CCCN(c2ncc(-c3ccccc3)cn2)C1 (centres undefined)	99
CN1c2ccccc2C(C)(C)C12C=Nc1c(c(C(=O)N3CCOCC3)cc3ccccc13)O2 (centres undefined)	99
O=C1CC(c2ccccc2Cl)CC2=C1C(c1ccc3c(c1)OCO3)Nc1ccccc1N2 (centres undefined)	99
Cc1cc(C)nc(NS(=O)(=O)c2ccc(NC(=O)C(C)Oc3ccc(Cl)cc3Cl)cc2)n1 (centres undefined)	111
COc1ccc2ccccc2c1C1NC(=S)NC(C)=C1C(=O)Nc1cccc(C)c1C (centres undefined)	111
Fc1ccccc1-c1nc(N2CCN(c3ccccn3)CC2)c2ccccc2n1	109
O=C(Nc1c(F)cc(F)cc1Br)c1cc(S(=O)(=O)NCCc2ccccc2)ccc1F	111
COCc1cc(C)nc2sc(-c3ccc([N+](=O)[O-])cc3)c(NC(=O)c3ccccc3)c12	100
Cc1cc(C2CCCN2S(=O)(=O)c2cccc(Cl)c2)on1 (centres undefined)	99
Cc1ccc(-c2noc3c(=O)n(CCC(=O)Nc4ccccc4Br)cnc23)cc1	100
Clc1ccccc1-c1csc(Cc2nc(-c3ccc4c(c3)OCO4)no2)n1	123
O=C(CSc1nc2ccc(NC(=O)CSc3nnnn3-c3ccccc3)cc2s1)Nc1ccccc1	113

Additional compounds
SMILES	GIV-Gai inh
O=C1S/C(=C\c2cccc(Br)c2)C(=O)N1c1ccc(O)cc1	106
CCC(=O)Oc1ccccc1C1OCC2C(C)C=C(C)C1C2C (centres undefined)	102
Cc1sc(-c2cc(C(F)(F)F)[nH]n2)cc1S(=O)(=O)N1CCN(C2CCCCC2)CC1	99
CC1CCCCN1Cc1c(O)ccc2c3c(c(=O)oc12)CCC3 (centres undefined)	102
COCC(=O)NC1(c2nnnn2-c2cccc(Cl)c2)CCCCC1	112
c1ccc(CNc2nc(-c3ccncc3)nc3c2CCC3)nc1	103
Cc1cc(=O)oc2c3c(ccc12)O/C(=C/c1ccc([N+](=O)[O-])cc1)C3=O	105
CC(=O)c1c(C)oc2c1cc(O)c1c2c(-c2ccc([N+](=O)[O-])cc2)nn1-c1ccccc1	100
CCOc1ccc2c(c1)C(OC(=O)c1cc3c(C)nn(-c4ccccc4)c3s1)CC(C)(C)O2 (centres undefined)	104
Cc1noc(C)c1C1CCCN1S(=O)(=O)c1c(C)noc1C (centres undefined)	99
CCOC(=O)C1=C(C)NC2=C(C(=O)c3ccccc32)C1c1ccccc1 (centres undefined)	103
COc1cccc(CNC2=NCCCNC23CCCCC3)c1	101
CCc1ccccc1NC(=O)c1ccc(F)c(S(=O)(=O)N2CCN(c3ccccc3)CC2)c1	109
COC(=O)C1C(=O)NC(SCC(=O)Nc2ccc(OC)cc2)=C(C#N)C1c1ccccc1OC (centres undefined)	108
CCOC(=O)c1c(NC(=O)CSc2nnc(CNC(=O)c3ccc([N+](=O)[O-])cc3)n2C)sc2c1CCCC2	110

Part of the list above in order of molar mass, largest number first:
SMILES	GIV-Gai inh
CCOC(=O)c1c(NC(=O)CSc2nnc(CNC(=O)c3ccc([N+](=O)[O-])cc3)n2C)sc2c1CCCC2	110
CC(=O)c1c(C)oc2c1cc(O)c1c2c(-c2ccc([N+](=O)[O-])cc2)nn1-c1ccccc1	100
COCC(=O)NC1(c2nnnn2-c2cccc(Cl)c2)CCCCC1	112
Cc1noc(C)c1C1CCCN1S(=O)(=O)c1c(C)noc1C (centres undefined)	99
CC1CCCCN1Cc1c(O)ccc2c3c(c(=O)oc12)CCC3 (centres undefined)	102
c1ccc(CNc2nc(-c3ccncc3)nc3c2CCC3)nc1	103

(next part)
SMILES	GIV-Gai inh
CCOC(=O)CC1=C(C(=O)OCC)C(c2ccc([N+](=O)[O-])cc2)C(C#N)=C(N)O1 (centres undefined)	108
COc1cc(/C=c2/sc3nc4cc(C)c(C)cc4n3c2=O)cc(Br)c1O	130
O=[N+]([O-])c1c(NCCO)cc(N2CCN(c3ccccn3)CC2)c2nonc12	103
CC(=O)C12c3ccccc3C(c3ccccc31)C1C(=O)N(c3ccccc3C)C(=O)C12 (centres undefined)	110
COc1ccc(NC(=O)Cn2nc(C(F)(F)F)c(Br)c2C)cc1OC	109
CC1CCN(S(=O)(=O)c2ccc3nn(CCOc4ccccc4)c(=O)n3c2)CC1	100
CCOC(=O)c1c(NC(=O)CSc2nnc3[nH]c(=O)cc(C)n23)sc2c1CCCCC2	102
C=CCn1c(SCC(=O)NCc2cccnc2)nc2sc3c(c2c1=O)CCC3	97
CC(C)(C)C(=O)CSc1nc2ccccc2nc1Cc1ccc(F)cc1	114
N#CC1=C(N)Oc2n[nH]c(-c3ccccc3)c2C1c1cc(Cl)cc(Cl)c1OC(=O)N1CCOCC1 (centres undefined)	110
CC(C)CCNC(=O)C1CCN(C(=O)c2nn(C)c3c2CN(C(=O)C(C)C)CC3)CC1	102
Nc1ncnc2nc(SCC(=O)Nc3ccc(Cl)cc3)[nH]c12	105
Cc1cc(Br)ccc1N1C(=O)/C(=C/c2ccc(Br)cc2)C=C1c1ccccc1	111
CCOc1ccccc1-n1c(SCC(=O)NCCc2ccc(S(N)(=O)=O)cc2)nc2n[nH]c(C)c2c1=N	102
NS(=O)(=O)c1ccc(CCNC(=O)CSc2nc(NCc3ccc(Cl)cc3)c3ccccc3n2)cc1	119

The listing continues:
SMILES	GIV-Gai inh
Cc1ccc(C2C3=C(Nc4c2c(=O)[nH]c(=O)n4C)c2ccccc2C3=O)cc1Cl (centres undefined)	116
O=c1ccn(-c2ccc(Cl)cc2)nc1-c1nc(-c2ccc(F)c(Br)c2)no1	99
Cc1ccc(C(=O)NCC(=O)Nc2cc(S(=O)(=O)N3CCCC3)sc2C)cc1	102
Nc1nc(CN2c3cccc4cccc(c34)S2(=O)=O)nc(N2CCOCC2)n1	106
Cc1c(CCNC(=O)c2ccc3c(c2)OCO3)sc2nc(-c3ccc(Cl)cc3)nn12	101
O=C(CSc1nnc2ccc(C(=O)Nc3cccc(F)c3)cn12)Nc1ccccc1F	108
Cc1ccccc1CN1CCCN(CC(=O)NC2CCCC2)S1(=O)=O	108
Cc1cc(C)c(S(=O)(=O)Nc2cc(Br)c3oc4c(c3c2)C(=O)CCC4)c(C)c1	111
O=C(CSc1nnc(NC(=O)COc2ccccc2)s1)Nc1ccc(Br)cc1	109
CCNc1cc(C)nc(Nc2ccc(NS(=O)(=O)c3ccccc3)cc2)n1	109
CCn1c(CCc2cccc(NS(=O)(=O)c3cccc4nsnc34)c2)nc2ccccc21	101
O=C(Nc1nc2ccccc2n1CCOc1ccccc1)c1ccc(F)cc1	106
COc1cccc(-c2noc(CSc3nccn3-c3ccccc3)n2)c1OC	105
COCCNC(=O)N1c2ccccc2NC2=C(C(=O)CC(C)(C)C2)C1c1ccccc1 (centres undefined)	99
Cc1cccc(NC(=O)C2CCN(S(=O)(=O)c3cc(C(=O)N4CCCC4)n(C)c3)CC2)n1	106

Later entries.
SMILES	GIV-Gai inh
COC(=O)c1ccc(C=Nc2c(C)n(C)n(-c3ccccc3)c2=O)cc1	110
Cn1nc(-c2nc(C3CC3)no2)c2c1CCN(C(=O)c1ccc(C(F)(F)F)s1)C2	99
O=C(Cn1c2ccccc2c2ncn(Cc3nc(C4CC4)no3)c(=O)c21)Nc1ccc2c(c1)OCCO2	112
O=C1C(=O)N(c2ccc(Br)cn2)C(c2ccccc2)/C1=C(\O)c1ccc(Cl)cc1 (centres undefined)	106
CCOC(=O)CC(=O)CSc1nc2sc(C(=O)OCC)c(C)c2c(=O)n1CCc1ccc(OC)c(OC)c1	120
COc1cccc(C2C(C#N)=C(N)Oc3n[nH]c(-c4ccc(Br)cc4)c32)c1OC(=O)N1CCOCC1 (centres undefined)	107
CCOC(=O)C(NC(=O)c1c[nH]c2ccc(S(=O)(=O)N(C)C3CCCCC3)cc2c1=O)C(=O)OCC	114
Cc1ccc(C)c(S(=O)(=O)N2CCOc3ccc(COCc4cccc(F)c4)cc3C2)c1	95

Assay outcomes (PubChem BioAssay)

These rows are one share of the data; the hit share may differ from the screen's.
